Compound activity deposited in PubChem BioAssay by ICCB-Longwood Screening Facility, Harvard Medical School.
GIV Gai3 FP – inhibitors of GIV peptide binding to Galpha-i3, primary screen, biochemical, fluorescence polarization, FITC-GIV GBA peptide, rat Galphai3 | 210,000 tested, 0.42% active | 90 min; active compounds read low; scaled: aluminum fluoride 0%, vehicle 100% | percent of control (FP), % (concentration not given with the values) | AID 1224905, 2016 | Guanine nucleotide-binding protein G(i) subunit alpha-3 (Rattus norvegicus), P08753;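 active = replicate mean at 85% of control or lower, very high polarization wells dropped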;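 also: wells of about 15 µL received 100 nL stock; the first replicate is given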
Target sequence (P08753 whole entry, looked up): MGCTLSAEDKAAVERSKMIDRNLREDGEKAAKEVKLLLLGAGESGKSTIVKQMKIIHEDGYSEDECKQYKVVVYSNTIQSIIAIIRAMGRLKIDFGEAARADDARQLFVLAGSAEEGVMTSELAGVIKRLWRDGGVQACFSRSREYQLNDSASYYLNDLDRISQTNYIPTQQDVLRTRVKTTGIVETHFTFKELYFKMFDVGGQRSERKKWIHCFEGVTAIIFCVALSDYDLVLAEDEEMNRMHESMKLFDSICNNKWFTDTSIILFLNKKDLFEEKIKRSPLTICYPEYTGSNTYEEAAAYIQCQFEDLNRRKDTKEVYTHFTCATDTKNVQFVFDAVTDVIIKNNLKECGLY
HCMV UL50-53 inh – inhibitors of HCMV UL50-UL53 interaction, biochemical, HTRF; HCMV UL50-UL53 nuclear egress complex (human cytomegalovirus); normalized percent inhibition; inhibition, % (no concentration beside the values); 190,000 tested, 0.15% active;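 active = both replicates at 50% or more, plus weaker picks with an unusually low signal ratio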;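 also: stock transfer was 100 nL into about 20 µL; 0% = negative control wells and 100% = wells with untagged competitor protein; inactives centre near -12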
Sa growth 42C – S. aureus growth inhibition at 42 and 30 °C, primary screen, LtaS inhibitor project, RN4220, two temperatures; OD600, 20 h, 42 °C; active compounds read low; relative growth, % (test concentration not listed); 170,000 tested, 0.53% active;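 active = growth at 42 °C up to 50% and 20 or more points under that at 30 °C, or under 10% at both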;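 also: 300 nL library stock went into each well; scaled to the means of positive and negative controls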
Sa growth 42C second temp – further read-out of Sa growth 42C, marked with its call; relative growth, %; measured here: growth at 30 °C;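 optical density after 20 h as mean of two plates; 100% = untreated growth and lower means inhibition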
Active calls of the source: *; / = no result given.

SMILES	GIV Gai3 FP	HCMV UL50-53 inh	Sa growth 42C	Sa growth 42C second temp
Cc1ccc(-c2n[nH]c(=O)c3ccccc23)cc1S(=O)(=O)NCCN1CCOCC1	99	-22	93	79
N#Cc1nc(-c2ccc(S(=O)(=O)N3CCCC3)cc2)oc1NC1CC1	100	-21	/	/
CSc1cccc(NC(=O)CN(C)S(=O)(=O)c2ccc3c(c2)CCCN3C(C)=O)c1	102	/	101	86
O=C(N/N=C/c1ccc(-c2ccc(Cl)c(C(=O)O)c2)o1)c1ccncc1	98	-87	77	79
CC(=O)c1cccc(-n2c(CCC(=O)O)ccc2-c2ccccc2)c1	108	-4	112	92
COc1ccccc1NCc1nnc2n1CCCCC2	98	/	110	88
CCOc1ccc(Cl)cc1N	103	15	84	80
COCC(C)N1C(=Nc2cccnc2)SCC1(O)c1cc2ccccc2o1 (stereo unspecified)	/	-28	101	92
CCCn1c(=O)c2c(C(=O)OCC)cc(-c3ccccn3)nc2n(CCC)c1=O	/	-25	71	87
COc1ccc(C2=NN(C(=O)c3cccs3)C(c3cccc(OC)c3OC)C2)cc1OC (stereo unspecified)	105	5	/	/
CC(C)c1ccc(/C=N/O)cc1	/	-5	103	94
CCc1ccc(C(=S)N2CCOCC2)cc1	99	-6	90	99
Cc1cccc2c(N=O)c(O)n(CCc3ccccc3)c12	100	-24	109	88
CCOC(=O)c1cnc2c(C)cc(C)cc2c1Nc1ccc(N2CCOCC2)cc1	104	-40	102	86
COc1cc(C)nc(Oc2ccc(OCCOc3ccccc3)nn2)n1	97	-6	95	91
O=c1cc(-c2ccc(F)cc2)nc(SCc2nc(-c3cccc(Cl)c3)no2)[nH]1	97	/	95	86
CCOc1ccc(N=C2SC(C(=O)Nc3cccc(OCC)c3)CC(=O)N2C)cc1 (stereo unspecified)	108	-1	/	/
Cn1cnc(S(=O)(=O)N2CCCC(C(=O)NCc3ccc(F)cc3)C2)c1 (stereo unspecified)	101	/	103	87
N#CCSC1=Nc2ccccc2C2=NC(CCC(=O)NC3CCCCC3)C(=O)N12 (stereo unspecified)	98	/	103	91
CC(=O)Nc1ccc(NC(=O)c2cc(=O)[nH]c3ccccc23)cc1	101	7	109	107

A draw from above in order of molecular weight, lowest first:
SMILES	GIV Gai3 FP	HCMV UL50-53 inh	Sa growth 42C	Sa growth 42C second temp
COc1cc(C)nc(Oc2ccc(OCCOc3ccccc3)nn2)n1	97	-6	95	91
N#Cc1nc(-c2ccc(S(=O)(=O)N3CCCC3)cc2)oc1NC1CC1	100	-21	/	/
COCC(C)N1C(=Nc2cccnc2)SCC1(O)c1cc2ccccc2o1 (stereo unspecified)	/	-28	101	92

More records:
SMILES	GIV Gai3 FP	HCMV UL50-53 inh	Sa growth 42C	Sa growth 42C second temp
Cc1cccc(-c2noc(-c3ccccc3NC(=O)C(C)(C)C)n2)c1	105	-38	/	/
CCCS(=O)(=O)N1CCC(c2c(C)n(Cc3ccc(Cl)cc3)c3ccccc23)CC1	109	-30	/	/
CCOc1ccc(NS(=O)(=O)c2cc(C(=O)N3CCN(c4cccc(C)c4)C(C)C3)n[nH]2)cc1 (stereo unspecified)	97	3	/	/
Cc1occc1-c1nnc(SCC(=O)NC(=O)NCc2ccccc2)n1Cc1ccccc1	/	-33	84	87
CCOC(=O)c1cccc(NC(=O)CCS(=O)(=O)c2ccc3c(c2)CCN3C(=O)CC)c1	105	-5	104	87
O=C(CSc1nc2nc[nH]c2c(=O)[nH]1)Nc1cccc(F)c1	96	5	/	/
CCc1cc(C(=O)NCCN2CCOCC2)no1	104	-9	/	/
COc1cccc2c(C)nc(NC3=NCN(CC4CCCO4)CN3)nc12 (stereo unspecified)	103	-7	100	88
CC(=O)Nc1ccccc1OCCN(Cc1ccccc1)C(=O)c1ccc(Cl)cc1	100	-47	87	92
O=C(CC1C(=O)N(c2ccccc2)C(=O)N1CCc1cccs1)Nc1ccc(Cl)cc1 (stereo unspecified)	102	-32	108	74
Nc1scc[n+]1CC(=O)[O-]	96	4	103	109
CCNc1nc(N)nc(Oc2ccc(OCC)nn2)n1	99	-6	101	107
CCOC(=O)c1[nH]c2c(c1Cc1ccccc1C)C(=O)CC(c1cc(OC)ccc1OC)C2 (stereo unspecified)	101	5	105	96
CCN(CC)c1ccc(NC(=O)C2CCCN(S(=O)(=O)c3ccc4c(c3)oc(=O)n4C)C2)c(C)c1 (stereo unspecified)	109	-15	/	/
CCCc1nc2nc(C)c(NS(=O)(=O)c3ccc(C4CCCCC4)cc3)c(=O)n2[nH]1	98	-6	/	/
COc1cccc(NC(=O)C2CCN(c3ncnc4c3sc3nc(C)cc(-c5ccccc5)c34)CC2)c1	102	-20	/	/
Cc1ccc(-n2nc(C)c3c(C)c(CCC(=O)NCc4cccs4)c(C)nc32)cc1	99	/	86	83
OC1C2CN3CCN(C2)CC1(Cc1ccccc1)C3 (stereo unspecified)	102	-18	103	89
NCCN1C(=O)S/C(=C/c2ccccc2)C1=O	/	-67	62	82
C=CCC1S/C(=N/N=C/c2ccccc2)NC1=O (stereo unspecified)	103	0	95	102
Cc1ccc(Nc2cc(C(=O)NCCC3=CCCCC3)c3ccccc3n2)c(C)c1	99	/	96	87
Oc1ccc(O)c([S+]2CCCCC2)c1	/	-2	81	79
Cc1nnc(-c2ccc(S(=O)(=O)N3CCOCC3)s2)o1	108	-47	/	/
CCc1cc(C(=O)Cc2cnn(-c3ccccc3)c2)c(O)cc1OC	/	-6	98	100
COc1cccc(-n2cc[nH]c(=O)c2=O)c1	104	-44	105	91
CC(C)NC(=O)COc1coc(CN2CCN(C(=O)c3ccco3)CC2)cc1=O	97	-19	87	87
COc1ccc(-c2csc3c(=O)[nH]cnc23)cc1	98	-6	/	/
CCOC(=O)c1c(C)n(C)c2ccc(OCCN(C)C)cc12	/	-22	112	93
CCC(=O)N1CCc2cc(CNC(=O)C(CC)c3ccccc3)ccc21 (stereo unspecified)	103	/	148	89
C=CCN(CC=C)S(=O)(=O)c1ccc(C)cc1	101	8	105	77
Cc1c(C(=O)NCc2cccc(Cl)c2)sc2nc3n(c(=O)c12)CCC3	109	19	86	93
O=C(CO/N=C/c1ccccc1OC(F)F)N1CCc2ccccc21	/	-12	96	91
O=C1c2ccccc2C(=O)c2c1oc1c3c(ccc21)OCN(Cc1ccccc1)C3	/	-51	106	74
COc1ccc(C)cc1NC(=O)c1cc2c(=O)n3cccc(C)c3nc2s1	99	15	95	93
O=C(c1ccccc1)C1CN(C2CCS(=O)(=O)C2)CCC1(O)c1ccccc1 (stereo unspecified)	98	/	113	87
O=C(Nc1cccc(F)c1)C1CCC(CNc2c(N3CCCC3)c(=O)c2=O)CC1 (stereo unspecified)	108	14	/	/
N#CC(C#N)C(c1ccsc1)c1c(-c2ccccc2)[nH][nH]c1=O (stereo unspecified)	/	-1	92	122
CN(C)c1ccc(CNC(=O)c2ccc3nc(CCc4ccccc4)oc3c2)cc1	95	/	90	85
Clc1ccc(-c2noc3ncnc(NC4CCCCC4)c23)cc1	98	-25	100	87
CC(C)(C)c1ccc(OCCSc2nc(-c3cccs3)nc3cc(=O)[nH]n23)cc1	99	/	94	86

Seven records picked at random from the list so far, as already listed:
SMILES	GIV Gai3 FP	HCMV UL50-53 inh	Sa growth 42C	Sa growth 42C second temp
O=C1c2ccccc2C(=O)c2c1oc1c3c(ccc21)OCN(Cc1ccccc1)C3	/	-51	106	74
O=C(Nc1cccc(F)c1)C1CCC(CNc2c(N3CCCC3)c(=O)c2=O)CC1 (stereo unspecified)	108	14	/	/
Cc1c(C(=O)NCc2cccc(Cl)c2)sc2nc3n(c(=O)c12)CCC3	109	19	86	93
O=C(CO/N=C/c1ccccc1OC(F)F)N1CCc2ccccc21	/	-12	96	91
COc1ccc(C)cc1NC(=O)c1cc2c(=O)n3cccc(C)c3nc2s1	99	15	95	93
Clc1ccc(-c2noc3ncnc(NC4CCCCC4)c23)cc1	98	-25	100	87
Cc1ccc(Nc2cc(C(=O)NCCC3=CCCCC3)c3ccccc3n2)c(C)c1	99	/	96	87

New compounds follow
SMILES	GIV Gai3 FP	HCMV UL50-53 inh	Sa growth 42C	Sa growth 42C second temp
C=CCc1cc(/C=C2\C(=O)NC(=O)N(c3ccc4c(c3)OCO4)C2=O)cc(OCC)c1O	145	-10	/	/
COc1ccc(C(=O)Nc2ccccc2C(=O)OCc2cc(=O)n3nc(C4CC4)sc3n2)cc1	102	/	77	91
COc1ccc(-n2c(=O)c3c4c(sc3n(Cc3cc(C)ccc3C)c2=O)CN(C(C)=O)CC4)c(OC)c1	101	9	86	79
CSc1cc(-c2csc3ccccc23)[nH]n1	101	-9	89	49
CCCCNC(=O)C(CC)Sc1nnc(-c2ccc(F)cc2)c(-c2ccc(F)cc2)n1 (stereo unspecified)	99	/	89	89
O=C(O)c1ccc(N2CCN(C3CCCCC3)CC2)c(NS(=O)(=O)c2cc(F)ccc2F)c1	105	-39	/	/
CC(=O)OCC(=O)Nc1ccc(I)cc1C	/	-32	94	82
C/C(=C\C=C\c1ccccc1)C(=O)c1c(C)cc(C)[nH]c1=O	100	/	98	83
CCOc1ccccc1CNC(=O)CCCn1ccc2cc(S(=O)(=O)N3CCCC3)ccc21	94	/	95	73
CCN1C(=O)c2ccccc2S(=O)c2ccc(C(=O)N3CCN(c4cccc(C)c4)C(C)C3)cc21 (stereo unspecified)	104	17	103	80
CSc1ccc(-c2nc3ccccc3c(=O)[nH]2)cc1	102	-10	112	92
O=C(CN1CCN(Cc2ccccc2)CC1)NC1CC1	102	-25	102	102
Cc1cc(C)nc(NS(=O)(=O)c2ccc(NC(=O)Cc3ccccc3)cc2)n1	106	-6	/	/
CCc1nnc(-c2cn(CC(=O)Nc3cccc(OC)c3)c3ccccc23)o1	102	19	/	/
COc1ccc(CNC(=O)C(=O)NCC(c2cccs2)S(=O)(=O)c2cccs2)cc1 (stereo unspecified)	97	/	110	84
O=C(O)C1(c2ccccc2)CCC(Nc2ccccc2)C1 (stereo unspecified)	/	-10	103	88
Cc1ccc(-c2noc(CN(C)C(=O)Nc3ccc(Cl)cc3)n2)cc1	102	/	95	95
COc1ccccc1COc1ccc2c3c(c(=O)oc2c1C)CCCCC3	110	/	102	91
Cn1c(SCc2ccc(F)cc2)nc2ccc(C(=O)NCc3ccc(Cl)cc3)cc21	95	9	113	93
CCOC(=O)c1c(C)[nH]c(C)c1C(=O)CSC(=S)N(C)C	/	1	101	89
COc1cc(NC(=O)c2cn(C3CCCC3)c(=O)c3c2c2ccccc2n3C)cc(OC)c1OC	101	-15	107	77
Cc1nc(N)sc1-c1nnc(SC/C=C/c2ccccc2)n1C	108	-36	101	76
Cc1cc2c(c(=O)o1)C(c1cccc(COc3ccccc3Cl)c1)C(C#N)=C(N)C2 (stereo unspecified)	/	-13	111	115
O=C(NCCS(=O)(=O)N1CCN(c2ccccc2)CC1)C1CC(=O)N(c2ccc(F)cc2)C1 (stereo unspecified)	96	/	95	87
OCC12C3CC4C5C3C1C5C(F)(F)C42 (stereo unspecified)	/	-19	79	94
O=S(=O)(c1ccc(F)c(Cl)c1)N1CCN(c2nc3ccccc3n3cccc23)CC1	108	5	/	/
CC(=O)NCc1nc2ccccc2n1Cc1ccccc1	98	/	98	90
CCn1c(=O)c(=O)[nH]c2cc(C(=O)Nc3ccc4c(c3)CCC4)ccc21	/	-39	93	74
CCCn1c(SCC(=O)N2CCc3ccccc32)nc(O)cc1=O	/	-24	86	79
COc1cccc(OC)c1C(=O)Nc1cc(Cl)ccc1N1CCOCC1	102	-1	100	82
O=C1S/C(=C\c2ccc(N3CCOCC3)o2)C(=O)N1Cc1ccc(F)cc1	258	-32	84	87
Cn1nc(-c2ccc(C(C)(C)C)cc2)cc1N	103	-2	93	84
Cc1cc(C)cc(C(=O)NCC(c2ccc(N(C)C)cc2)N2CCOCC2)c1 (stereo unspecified)	106	-7	108	93
COc1ccc(Cn2ncc3ccc(C(=O)NCc4ccc(Cl)cc4)cc32)cc1	104	-14	/	/
Cc1ccc(C)c(Cn2c(C(=O)OC(C)C)cc3c2ccn3C)c1	100	-3	121	85
COC(=O)c1ccc(NC(=O)Cc2coc3cc(C)ccc23)cc1	103	-2	119	104
Cc1cc(C)n2nc(CC(=O)NC3CCCCCCC3)nc2n1	103	/	95	84
Cc1ccc2c(=O)c(C(=O)c3ccccc3)cn(CC(=O)Nc3ccc(C)c(Cl)c3)c2n1	102	/	102	83
COc1ccc(/C=N/N=C/c2ccc(OC)c(O)c2)cc1O	98	-7	112	80
CC1=C(C(=O)Nc2ccccc2)S(=O)CCO1 (stereo unspecified)	108	-32	101	84
C1CCCC(NCCCN2CCOCC2)CC1	100	-17	104	109
CCC(=O)Nc1nc2ccc(NC(=O)CCC3CCCC3)cc2s1	100	-8	/	/
CCOC(=O)Cc1nc2ccccc2o1	125	/	82	81
Cc1ccc(OCCn2cc(C=C(C#N)C#N)c3ccccc32)cc1	104	-27	100	94
O=c1c(-c2ccccc2Cl)c(C(F)(F)F)oc2c(CN3CCOCC3)c(O)ccc12	108	-18	/	/
Cc1ccccc1CNC(=O)c1ccc(CN2CC(=O)N3CCCCC3C2=O)cc1 (stereo unspecified)	103	/	90	96
COc1ccc(C(=O)N2CCCN(C)CC2)cc1S(=O)(=O)N(C)Cc1ccccc1	/	-16	80	86
